Screening results from PubChem.
Sa RN4220 lethal = S. aureus RN4220 growth inhibition; OD600, 16 h; inhibition, % (concentration not given with the values); 330,000 tested, 0.33% active;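 active = z-score of -3 or lower and OD600 up to 0.18 on both plates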;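 note: plate controls were untreated cells for no effect and reference antibiotic for full effect; stock transfer was 100 nL into about 80 µL; one replicate is shown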
BJeLR viability = kills HRASV12-expressing BJeLR cells; BJeLR (HRASV12) viability, CellTiter-Glo ATP luminescence, 48 h; reference of the scale not given here; 300,000 tested, 0.17% active; AID 1554; inhibition, % (test concentration not listed);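 active = replicate mean above 50%; inconclusive = above 50% but judged a plate artefact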;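 note: 50 nL library stock added to about 25 µL; numbers are from one replicate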
Sa ugtP lethal = growth inhibition of S. aureus ugtP deletion strain | S. aureus RN4220 ugtP deletion, OD600 growth, 16 h; some inactives read as strong as hits | growth inhibition, % (test concentration not listed) | 330,000 tested, 0.54% active | AID 1259309;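 active = z-score under -3 and OD600 up to 0.15 on both plates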;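 note: plate controls were untreated wells for no effect and antibiotic for full effect; wells of about 80 µL received 100 nL stock; the first replicate is given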
PrP UTR inh = inhibition of PrP 5' UTR reporter expression | cell-based PrP 5' UTR mRNA reporter, plate reader | inhibition, % (test concentration not listed) | 340,000 tested, 0.35% active | AID 488862;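 active = every replicate at 50% or more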;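 note: 0 = median of the neutral control wells; tested in H4 reporter cells; numbers are from one replicate; inactives centre near -14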
Mtb hypoxia rep = reduces hypoxia-regulated biosensor signal in M. tuberculosis | M. tuberculosis hypoxia-regulated fluorescent reporter, fluorescence | AID 1159583 | 300,000 tested, 0.1% active | fluorescence inhibition, % (no concentration beside the values);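 active = 35 to 45% if threefold the growth effect, above 45% if 1.5-fold the growth effect; inactive = the rest, general growth blockers included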;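 note: wells of about 50 µL received 100 nL stock; 0% = vehicle wells and 100% = reference inhibitor wells; whole bacteria with a GFP reporter of the hypoxia response; strong numbers were not always called active; many hits fall short of the cut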
Bead autofluor = flagged as autofluorescent in microsphere protease counterscreen | compound autofluorescence counterscreen, microsphere flow cytometry; hits give high values | fluorescence intensity (no concentration beside the values) | 360,000 tested, 3.1% active;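 active = at least 3 SD above the mean of all compounds, about 16000 in these data; inconclusive = too few beads counted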;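 note: 100 nL of 1 mM stock went into each well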
Mtb hypoxia rep growth = further read-out of Mtb hypoxia rep, marked with its call; growth inhibition, %; measured here: M. tuberculosis growth (absorbance);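 0% = vehicle and 100% = reference antibiotic; read after six days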
The depositor's hits bear a star; ? = inconclusive; nt = no result given.

no. | Structure | Sa RN4220 lethal | BJeLR viability | Sa ugtP lethal | PrP UTR inh | Mtb hypoxia rep | Mtb hypoxia rep growth | Bead autofluor
1 | O=C(NCc1ccccc1)c1cc[n+]([O-])cc1 | 0.6 | -2 | 9 | -3 | -3 | -7 | 2880
2 | Clc1ccc(OCCn2c(-c3ccco3)nc3ccccc32)cc1 | 10.0 | 1 | -13 | -13 | 2 | 11 | nt
3 | OCc1ccnc(Cl)c1 | 4.4 | 7 | 3 | -3 | -1 | 1 | 1987
4 | O=C(CCSc1ccccc1)NC1CCCCCC1 | -5.6 | 3 | -6 | -29 | -7 | -5 | 2634
5 | COC(=O)C1CCN(C(=O)/C(C)=C\c2ccccc2)CC1 | 2.9 | 9 | 6 | -13 | 5 | 4 | 3304
6 | Cc1cc(C(F)(F)F)nn1CC(=O)NNC(=S)Nc1cccc(Cl)c1 | 2.5 | 3 | -5 | -14 | 2 | -5 | 10850
7 | CCC(c1c(C)n(C)n(-c2ccccc2)c1=O)c1c(C)n(C)n(-c2ccccc2)c1=O | -0.6 | -3 | -2 | -14 | 3 | 24 | 4296
8 | O=C(c1cc2nc(-c3ccco3)cc(C(F)(F)F)n2n1)N1CCCCCC1 | 2.6 | -1 | 6 | 3 | 14 | 9 | 5983
9 | CC(C)(C)CC(=O)NC(=S)N1CCCCCC1 | 7.2 | 3 | 15 | -3 | 9 | 7 | 7537
10 | COc1ccc(NC(=O)CSc2nnc(C)n2Cc2ccccc2)cc1 | 4.3 | -3 | 5 | -7 | -8 | -2 | 3359
11 | CC(C)(O)C#Cc1ccc(C(=O)NCc2cccs2)s1 | 5.8 | 2 | 2 | -5 | nt | nt | 4697
12 | Cc1ccsc1C=NNc1ncnc2nc[nH]c12 | 6.2 | nt | 11 | nt | 6 | 4 | nt
13 | CN(CC(=O)NCCCN1CCOCC1)S(=O)(=O)c1cc(Cl)ccc1Cl | 0.1 | -1 | 10 | -1 | 13 | -13 | 4577
14 | COC(=O)[C@]1(Cc2ccccc2)N[C@H](CN(C)C(C)=O)[C@@H]2C(=O)N(C)C(=O)[C@@H]21 | -0.2 | nt | 1 | -16 | 2 | 4 | 3711
15 | Nc1cc2c(cc1[N+](=O)[O-])OCCOCCOCCO2 | 15 | -12 | 4 | 7 | 14 | 10 | 3765

Next entries follow.
no. | Structure | Sa RN4220 lethal | BJeLR viability | Sa ugtP lethal | PrP UTR inh | Mtb hypoxia rep | Mtb hypoxia rep growth | Bead autofluor
16 | O=C(O)c1ccc(N/N=C/C=C/c2ccccc2)cc1 | nt | 2 | nt | -60 | nt | nt | 4601
17 | Cc1cc2oc(=O)cc(Cn3nnc(-c4ccc(Cl)cc4)n3)c2cc1C(C)C | 9.0 | -10 | -3 | nt | 9 | 0 | nt
18 | CC12CCC(=O)N1C(C(=O)N1CCN(c3ccc(C(F)(F)F)cc3[N+](=O)[O-])CC1)CS2 (stereo not given) | -1.2 | -4 | 12 | -29 | 13 | -1 | 3911
19 | Nc1ccccc1C(=O)NNc1c2ccccc2nc2ccccc12 | 5.4 | 6 | -16 | -22 | -11 | -6 | 2987
20 | N#CC(=NNc1ccc(F)cc1)C(=N)N1CCCCCC1 | 5.0 | nt | 11 | nt | 8 | 6 | nt
21 | COCCNC(=O)CN1C(=O)NC2(CCCc3ccccc32)C1=O (stereo not given) | 1.6 | 9 | -1 | -19 | -1 | -7 | 3088
22 | Cn1c(C(=O)c2ccncc2)cc2ccccc21 | 5.8 | -3 | 0 | -34 | 16 | 0 | 3587
23 | S=c1[nH]nc(-c2ccccc2)n1N=C/C=C/c1ccco1 | 10.0 | nt | -3 | nt | 2 | 1 | nt
24 | O=C(Nc1nccs1)c1cccc(N2C(=O)c3cccc4c([N+](=O)[O-])ccc(c34)C2=O)c1 | 9.6 | 2 | 11 | -4 | 8 | 16 | 3142
25 | COc1ccc(C(=O)CN2C(=O)NC3(CCCCC3)C2=O)cc1OC | 6.5 | nt | 5 | -17 | 16 | 9 | 4404
26 | COc1ccc(OC)c(NC(=O)CCNC(=O)Cn2ccc3ccccc3c2=O)c1 | 2.5 | 6 | 7 | -11 | -13 | -9 | 3698
27 | O=C1Nc2ccccc2S/C1=C/Nc1cccc(Cl)c1 | 9.7 | 3 | -2 | -71 | 15 | 10 | 9307
28 | O=C1C2=C(Nc3ccccc3SC2c2ccco2)c2ccccc21 (stereo not given) | -23 | -1 | -17 | -24 | 4 | -1 | 2348
29 | CC(C)(C)NC(=O)C(=O)NNC(=O)COc1ccc(Br)cc1 | -0.2 | -5 | 0 | -27 | 8 | 10 | 2076
30 | CC(NC(=O)c1cc2cc(Cl)ccc2oc1=N)c1ccccc1 (stereo not given) | 1.2 | -2 | -2 | -4 | 8 | 5 | 4433

Further entries
no. | Structure | Sa RN4220 lethal | BJeLR viability | Sa ugtP lethal | PrP UTR inh | Mtb hypoxia rep | Mtb hypoxia rep growth | Bead autofluor
31 | CCn1c(C)c(C)c2cc(C(=O)NCCc3ccco3)ccc21 | nt | -6 | nt | -10 | nt | nt | 4699
32 | CN(C)CCn1c2c(c(SCC(=O)Nc3ccc4c(c3)OCCO4)nc1=O)CCCC2 | 0.3 | -3 | 5 | -29 | 7 | -3 | ?
33 | Cc1ccc(CC(=O)N2CCN(S(=O)(=O)c3ccccc3)CC2)cc1C | 5.4 | 10 | 6 | -11 | 9 | -1 | 4647
34 | CCOC(=O)CN(C(=O)c1snc(C(N)=O)c1N)C(C(=O)NCCC(C)C)c1ccc(F)cc1 (stereo not given) | 1.6 | -9 | 6 | -1 | 0 | -6 | 3531
35 | O=C1c2ccccc2S(=O)(=O)c2cc(C(=O)N3CCN(c4ccccc4)CC3)ccc21 | 7.1 | 9 | 1 | -14 | 14 | 8 | 3429
36 | COc1ccc(OCC(O)Cn2c(N)nc3c2c(=O)[nH]c(=O)n3C)cc1 (stereo not given) | 0.3 | 0 | 4 | -20 | 11 | 6 | 4225
37 | CC1N(C)c2cc(NC(=O)c3ccco3)ccc2C1(C)C (stereo not given) | 1.1 | 2 | -27 | -64 | 0 | 12 | 9076
38 | O=C(C1CCN(c2nnc(-n3cccc3)s2)CC1)N1CCOCC1 | 6.4 | 9 | 12 | -5 | 7 | 6 | 5671
39 | CC(C)CC(=O)NC(=S)Nc1ccccc1N1CCCC1 | 8.8 | -7 | 79 | -17 | 5 | 11 | 3934
40 | C=CCNC(=O)c1c(-c2c(F)cccc2Cl)noc1C | -0.4 | 16 | 0 | -4 | nt | nt | 4856
41 | C[C@]12C(=O)N(c3ccc(Cl)cc3)C(=O)N1[C@H]1c3ccccc3OC[C@@H]1[C@H]2c1ccccc1 | nt | 8 | nt | -25 | nt | nt | 4137
42 | O=C(c1cc2ccccc2o1)N1CCN(c2ncccn2)CC1 | 4.7 | nt | 10 | -15 | 4 | 7 | 3775
43 | COc1ccc(C=Nn2cnn(Cc3ccccc3Cl)c2=S)cc1 | 1.7 | nt | 0 | nt | 13 | -8 | nt
44 | COc1ccc(CNC(=O)C(=O)NCC(c2ccco2)N2CCOCC2)cc1 (stereo not given) | 0.7 | -2 | 1 | -41 | 4 | 10 | 2482
45 | CCc1cc(=O)oc2cc(C)cc(OCC(=O)NCc3ccncc3)c12 | 0.0 | 16 | 7 | -36 | 6 | 1 | 5266

Later entries:
no. | Structure | Sa RN4220 lethal | BJeLR viability | Sa ugtP lethal | PrP UTR inh | Mtb hypoxia rep | Mtb hypoxia rep growth | Bead autofluor
46 | COCCNC(=S)NN=Cc1ccc(OCc2ccc(C(=O)OC)cc2)cc1 | 3.2 | nt | 1 | nt | -3 | 11 | nt
47 | CCOc1ccccc1OCCOCCN1CCN(Cc2ccccc2)CC1 | 1.8 | -2 | 2 | -10 | -11 | 5 | 2582
48 | O=C(NC1CCCCCC1)c1ccc(CN2CCOCC2)cc1 | -14 | -5 | 0 | -78 | 0 | 5 | 2460
49 | CCN(CC)C(=O)COc1ccc2oc(C)c(C(=O)OC)c2c1 | -4.9 | nt | -3 | -8 | -7 | 2 | 3375
50 | COc1ccc(-c2csc3ncnc(N4CCN(S(=O)(=O)c5ccc(C(C)=O)cc5)CC4)c23)cc1 | 7.3 | 5 | 0 | 8 | -5 | -6 | 4483
51 | CCCCCCC1CCC(C(=O)Nn2c(C)nc3ccccc3c2=O)CC1 (stereo not given) | 1.7 | -12 | -5 | -10 | 9 | 9 | 5302
52 | COc1ccc2cc(CN(CCO)C(=O)c3ccc(Br)cc3)c(=O)[nH]c2c1 | -11 | -6 | -2 | -8 | -2 | 9 | 2811
53 | O=C(O)c1ccc2c(=O)n3c(nc2c1)/C(=C/c1ccc(C(F)(F)F)cc1)CC3 | 4.8 | 48 | 2 | -10 | -10 | 7 | 3545
54 | Cc1[nH]n(-c2ccc(Cl)c(Cl)c2)c(=O)c1CCO | 11 | -1 | -14 | 1 | -1 | -4 | 1996
55 | CCOC(=O)N/N=C(\C)c1ccc(C)c([N+](=O)[O-])c1 | nt | 9 | nt | -8 | nt | nt | 8492
56 | Cc1cc(C)c(OCC(=O)OC(C)C(=O)NCc2ccccc2)c(C)c1 (stereo not given) | 3.0 | nt | 7 | -6 | 1 | -2 | ?
57 | COc1ccc(NC(=S)c2ccc3ccccc3n2)cc1 | nt | -1 | nt | -25 | nt | nt | 5615
58 | O=C(O)COc1ccc2c3c(c(=O)oc2c1)CCC3 | 1.9 | 2 | 2 | -14 | 8 | 15 | 2792
59 | Cn1cccc1C(C(=O)NC1CCCCC1)N(C(=O)Cc1cccs1)c1ccc2c(c1)OCO2 (stereo not given) | -0.3 | 7 | -3 | -12 | 1 | -1 | 12475
60 | CCNc1nc(SCCOc2ccc(Cl)cc2Cl)nc(N(C)C)n1 | 0.1 | 7 | 3 | -40 | 11 | 1 | 4298

Next part
no. | Structure | Sa RN4220 lethal | BJeLR viability | Sa ugtP lethal | PrP UTR inh | Mtb hypoxia rep | Mtb hypoxia rep growth | Bead autofluor
61 | CS(=O)(=O)c1nc(S(=O)(=O)c2ccc(Cl)cc2)c(N2CCC(C(N)=O)CC2)s1 | 1.5 | -7 | 4 | 6 | 8 | 3 | 4697
62 | CC(CC(=O)Nc1ccc(C)c(Cl)c1)=NNC(=O)Cc1cccs1 | 5.9 | nt | 5 | nt | 5 | 8 | nt
63 | CC1(C)CC2CC(C)(CN2C(=O)COc2cccc3ccccc23)C1 (stereo not given) | 0.4 | -5 | 2 | -11 | nt | nt | 4834
64 | C=CCC1NS(=O)(=O)OCC1NC(=O)OCC(Cl)(Cl)Cl (stereo not given) | 6.7 | -8 | 2 | -22 | 22 | 16 | 4004
65 | Oc1ccc(N=C/C=C/c2cccc(Br)c2)cc1-c1nc2ccccc2s1 | 5.1 | -6 | -1 | -54 | 5 | 8 | 6506
66 | COc1cc2c(cc1C1NC(=S)NC(C)=C1C(=O)N(C)C)CCCC2 (stereo not given) | 1.2 | 6 | 7 | 2 | 1 | 2 | 2191
67 | Cc1ccc(-n2c3c(cc(C(=O)NCc4ccco4)c2=O)C(=O)CC(C)(C)C3)cc1 | 2.6 | 0 | -2 | -7 | 5 | 8 | 2425
68 | Cc1ccc(CNC(=O)CSc2nc(=O)n3cccc(C)c3n2)cc1 | 4.7 | 2 | 1 | -1 | -1 | 6 | 5643
69 | CCc1ccc(OCC(=O)Nc2ccc3c(c2)COC3=O)cc1 | 2.2 | 5 | -16 | -5 | 2 | 3 | 4020
70 | Cc1cc(C)cc(N(CCC#N)C(=O)CSc2n[nH]c(N)n2)c1 | 4.1 | 1 | 9 | -12 | 14 | 3 | ?
71 | CCOC(=O)N1CCN(C(=O)C2COc3ccccc3O2)CC1 (stereo not given) | 3.3 | -2 | -2 | -9 | 11 | 13 | 8609
72 | O=C(CCCN1C(=O)/C(=C/c2ccccc2)SC1=S)Nc1ccc(O)cc1 | -0.9 | -2 | 7 | -5 | 2 | 9 | 2533
73 | CCOc1ccccc1-n1c(SCC(=O)NC)nnc1-c1ccco1 | 0.5 | 7 | 4 | 2 | 8 | 1 | 17639*
74 | O=C(Cn1ccc(C(F)(F)F)n1)N/N=C/c1cccs1 | nt | -18 | nt | -5 | nt | nt | 10961
75 | O=C(CN1C(=O)CN=C(c2ccccc2)c2ccccc21)NCc1ccco1 | 7.7 | 22 | -4 | -1 | nt | nt | 3524
76 | CN1CCN(C(=O)COc2ccc(S(=O)(=O)NCc3ccccc3)cc2Cl)CC1 | 8.9 | -5 | 2 | -20 | 2 | 6 | 9545
77 | CC1CCCCN1S(=O)(=O)c1ccc(S(=O)(=O)N2CCN(c3ccccc3)CC2)cc1 (stereo not given) | 5.6 | 2 | -4 | -19 | -3 | 0 | 9214
